Compound activity: PubChem BioAssay, several laboratories
AF4-AF9 inh = blocks AF4 peptide binding to human AF9; P42568; inhibition, % at 10 µM; AID 651704; hit rate 0.47% among 350,000; AlphaScreen, biotin-AF4 peptide binding to FLAG-AF9;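 active = every replicate reaching a set inhibition limit, whatever the replicate mean, cut at about 25% in these data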;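 also: 0% = plate neutral control median and 100% = total signal loss; the record names both 10 and 1 µM as test concentration; the first replicate is given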
Ecoli growth = inhibitors of Escherichia coli growth; OD600, 23 h; active compounds read low; OD600 absorbance (concentration not given with the values); hit rate 0.21% among 330,000; AID 1053175;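 active = OD600 absorbance below the run mean of sample wells minus 3.6 SD, in any replicate, cut at about 0.56 in these data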;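 also: stock transfer was 300 nL into about 60 µL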
HNF4A DNA FP = change in binding of human HNF4 alpha to DNA; HNF4a-FITC DNA binding, fluorescence polarization, 1 h; activity change, % at 10 µM; hit rate 0.3% among 360,000; in the data active = activity change above about 30%, passing the limit was not always enough;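 also: controls were the assay level and a saturating level of protein; the project sought stronger binding though the title names inhibitors; some compounds called inactive have numbers as strong as hits; positive values seem to mean higher polarization but the record does not say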
Target sequence (P41235 whole entry, looked up): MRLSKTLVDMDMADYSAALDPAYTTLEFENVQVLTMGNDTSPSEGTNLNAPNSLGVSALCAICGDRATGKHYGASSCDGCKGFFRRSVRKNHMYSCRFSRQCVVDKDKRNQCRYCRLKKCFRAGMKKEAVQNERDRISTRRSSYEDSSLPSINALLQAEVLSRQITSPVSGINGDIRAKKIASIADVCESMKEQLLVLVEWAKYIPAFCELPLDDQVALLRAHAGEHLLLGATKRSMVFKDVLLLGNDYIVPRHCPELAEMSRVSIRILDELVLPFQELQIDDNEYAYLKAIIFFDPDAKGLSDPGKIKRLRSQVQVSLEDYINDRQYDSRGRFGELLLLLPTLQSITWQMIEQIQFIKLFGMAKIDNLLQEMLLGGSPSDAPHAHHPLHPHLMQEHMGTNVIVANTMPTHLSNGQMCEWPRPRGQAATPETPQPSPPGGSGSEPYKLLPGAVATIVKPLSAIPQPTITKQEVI
FGF22 binding = binders of recombinant human FGF22 by thermal shift. SYPRO orange fluorescence; percent of sucrose octasulfate shift, DMSO zero. calls only at 9.99 µM. Q9HCT0. hit rate 1.5% among 340,000;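 active = melting point raised past a set limit in the mean and every replicate; three in four hits are not shown here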
Target sequence (Q9HCT0 whole entry, looked up): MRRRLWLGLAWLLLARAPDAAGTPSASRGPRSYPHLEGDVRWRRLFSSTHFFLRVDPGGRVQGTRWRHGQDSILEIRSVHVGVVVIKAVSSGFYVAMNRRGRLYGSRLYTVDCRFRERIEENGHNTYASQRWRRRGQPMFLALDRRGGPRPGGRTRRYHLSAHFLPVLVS
Vif TR-FRET = HIV-1 Vif–A3G interaction blockers – biochemical, TR-FRET, GST-Vif 1-94, biotin-A3G peptide, dose response retest, primary screen (AID 1117319); TR-FRET GST-Vif / biotin-A3G peptide binding; higher % means a stronger effect; test concentration not given here; strong numbers were not always called active; one-dose inhibition, %; IC50 in µM for titrated hits; hit rate 0.57% among 260,000;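 active = above the screen mean plus three standard deviations and confirmed in dose response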;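 also: Vif residues 1-94 fused to GST binding biotinylated APOBEC3G peptide 110-148; 0% = full assay without inhibitor and 100% = GST in place of GST-Vif; retest series ran down from 100 µM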
ALR H2O2 inh = blocks human ALR sulfhydryl oxidase activity; P55789; purified ALR, DTT oxidation, H2O2 HRP-luminol luminescence; inhibition, % (no concentration beside the values); hit rate 3.8% among 290,000; AID 485317;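 active = mean and each replicate at 75% or more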;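 also: stock transfer was 7.5 nL into about 7.5 µL; 0% = neutral wells and 100% = wells with inactivated enzyme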
Target sequence (P55789 whole entry, looked up): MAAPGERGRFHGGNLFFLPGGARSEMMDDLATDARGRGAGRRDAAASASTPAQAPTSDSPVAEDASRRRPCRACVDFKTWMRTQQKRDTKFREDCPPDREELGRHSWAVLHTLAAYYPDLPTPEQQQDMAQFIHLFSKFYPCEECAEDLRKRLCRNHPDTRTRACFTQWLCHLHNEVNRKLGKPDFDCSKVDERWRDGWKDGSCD
rRNA inh HTS = selective bacterial rRNA inhibition in E. coli; E. coli WT GFP vs humanized-ribosome RFP mutants, fluorescence, 24 h; active compounds read low; DMSO median 0, no signal -100; GFP signal change (wild-type ribosome), % (no concentration beside the values); hit rate 1.6% among 350,000; AID 720706;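 active = significant combined selectivity score with lowered wild-type GFP, culture density cut under 30%, mutant RFP and density less affected; inactive = any of these conditions unmet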; also: one replicate is shown; some compounds called inactive have numbers as strong as hits
rRNA inh HTS OD600 = recorded beside rRNA inh HTS, whose call it bears; OD600 change, %; measured here: OD600 growth;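 optical density of the mix in the first replicate; 0 = DMSO median and -100 = no signal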
rRNA inh HTS RFP = further read-out of rRNA inh HTS, marked with its call; RFP signal change, %; measured here: RFP humanized mutant strains;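 first replicate; 0 = DMSO median and -100 = no signal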
Starred values were filed as active, the others as inactive; i = inactive; · = no result given. Only part of the results is shown; the hit share may differ from the screen's.

Values run as follows: AF4-AF9 inh | Ecoli growth | HNF4A DNA FP | FGF22 binding | Vif TR-FRET | ALR H2O2 inh | rRNA inh HTS | rRNA inh HTS OD600 | rRNA inh HTS RFP
Cc1cccc2c1N(CCCOc1ccc(C(C)(C)C)cc1)C(=O)C2=O
  · | 0.716 | 0.0 | · | 72.5% | · | · | · | ·
CCSc1nc2nn(-c3ccccc3)c(=O)c-2c2n1CCCCC2
  · | 0.685 | -1.0 | · | 7.4% | · | · | · | ·
Cc1cc(C)n(CCC(=O)N2CCc3ccccc32)n1
  3.2 | 0.708 | -3.8 | i | · | 17.3 | -8.0 | 6.0 | 2.3
COc1ccc(S(=O)(=O)N(C)C[C@@H]2Oc3ccc(NC(=O)C4CC4)cc3C(=O)N([C@@H](C)CO)C[C@H]2C)cc1
  -1.0 | · | · | i | · | · | 2.0 | 5.6 | -3.4
Cc1ccc(CNC(=O)CCc2ccccc2)cc1
  -3.1 | 0.72 | -1.1 | i | 5.4% | -2.3 | 5.8 | 6.0 | 0.0
COc1ccc(CNc2cccnc2)c(OC)c1OC
  -5.6 | · | -0.6 | i | 7.2% | · | 8.1 | 3.9 | -0.5
CCN(CC(=O)Nc1ccc(OC)cc1)CC(=O)Nc1cccc(S(=O)(=O)N2CCOCC2)c1
  0.9 | · | 4.1 | i | -2.1% | · | 7.2 | 7.3 | 1.1
CC(C)c1ccc(Nc2nnns2)cc1
  -1.3 | 0.602 | -0.5 | i | -6.0% | -0.2 | · | · | ·
CC(C)(NC(=O)c1ccccc1)c1nc2ccccc2s1
  -7.9 | 0.626 | 2.7 | i | · | 4.3 | 2.0 | -5.3 | -15.9
CCN(CC)c1ccc(NC(=O)CSC(=O)c2ccccc2)cc1
  1.9 | 0.684 | -2.0 | i | · | 99.2* | -17.4 | -14.9 | 0.1
C=CCNc1nc(Nc2ccc([N+](=O)[O-])cc2)nc(OC)n1
  · | 0.689 | 2.2 | · | -5.1% | 0.3 | · | · | ·
N#Cc1ccccc1S(=O)(=O)N1CCN(C(=O)CN2CCCSc3ccccc32)CC1
  1.1 | 0.698 | 7.4 | i | · | · | -3.8 | -17.4 | 1.8
COCCn1c(SCC(=O)c2[nH]c(C)c(C(C)=O)c2C)nc2ccccc21
  · | 0.653 | -0.5 | · | 4.4% | 12.8 | · | · | ·
O=C(c1ccc(F)cc1)N1CCCC(c2nc(-c3ccncc3)no2)C1 (centres undefined)
  -9.8 | 0.689 | -1.4 | i | · | -4.8 | -1.6 | -8.5 | -6.9
O=C(NC1CCC1)[C@@H]1[C@@H](CO)[C@@H]2Cn3c(ccc(/C=C/c4ccccc4)c3=O)[C@@H]2N1Cc1cncnc1
  -1.5 | · | · | i | · | · | -0.8 | -1.9 | 2.1
CCCCS(=O)(=O)c1sc2nc(C)cc(C)c2c1N
  · | 0.677 | 1.8 | · | -1.5% | -6.3 | · | · | ·
CCN(CC(=O)Nc1c(F)cccc1F)C(=O)c1cnccn1
  -6.2 | 0.707 | -3.2 | i | 4.4% | 18.1 | 12.8 | 12.8 | 0.5
COc1cc(OC)nc(NC(=O)CSc2nc3ccccc3[nH]2)n1
  5.1 | 0.69 | 1.3 | i | -7.7% | -7.0 | -14.5 | 6.1 | 10.0
Cc1nn(Cc2ccc(C(=O)N3c4ccc(F)cc4CCC3C)o2)c(C)c1Br (centres undefined)
  · | 0.736 | 1.9 | · | 0.0% | -9.3 | · | · | ·
COc1ccc(CN2CCNC(=O)C2CC(=O)NCc2csc(C(C)C)n2)c(OC)c1 (centres undefined)
  1.8 | 0.661 | · | · | 9.2% | -2.5 | 4.0 | 1.0 | -2.5
C[C@H]1CN([C@@H](C)CO)C(=O)c2cccc(NC(=O)CCCCCC(=O)Nc3ccccc3N)c2O[C@H]1CN(C)C(=O)Nc1ccc2c(c1)OCO2
  1.7 | · | · | i | · | · | 3.0 | 1.9 | -1.3
COC(=O)c1cc(CSC(=N)N)ccc1OCCC(C)C
  5.4 | 0.683 | -0.7 | i | -6.6% | 99.3* | · | · | ·
CCCNC(=O)C(Cc1ccc(C(F)(F)P(=O)(OCC)OCC)cc1)NC(=O)c1ccc(C#N)cc1 (centres undefined)
  5.9 | 0.655 | -2.0 | i | · | -1.6 | -11.1 | -8.8 | -11.9
COc1ccc(CN(C)C[C@@H]2Oc3ccc(NC(=O)CCC(F)(F)F)cc3C(=O)N([C@@H](C)CO)C[C@H]2C)cc1
  -0.3 | · | · | i | · | · | -1.2 | 3.3 | -1.6
CC(=O)NC[C@@H]1[C@H](c2ccc(C3=CCCC3)cc2)[C@H](CO)N1C(=O)NC(C)C
  -6.2 | · | · | i | · | · | -2.0 | 10.7 | -0.7
Cc1ccnc2c(N3C(=O)C4C5C=CC(C5)C4C3=O)cccc12 (centres undefined)
  · | 0.752 | 1.0 | · | -4.3% | · | · | · | ·
O=[N+]([O-])c1ccc(Cc2cncc(O)c2)cc1
  4.1 | 0.671 | -2.8 | i | -3.9% | 11.5 | -3.9 | 6.5 | -1.9
O=C(COC(=O)/C=C/c1cccc(Cl)c1)NCCC1=CCCCC1
  · | 0.691 | 2.1 | · | · | -6.5 | · | · | ·
COc1ccc(S(=O)(=O)N2CCCCCC2)cc1C(=O)Nc1cccc(C)n1
  -1.9 | 0.656 | -1.6 | i | · | -1.1 | 1.5 | 5.5 | 0.9
O=C(NCC(c1cccs1)N1CCOCC1)c1ccc(Cl)s1 (centres undefined)
  · | 0.692 | -3.5 | · | -3.2% | 12.0 | · | · | ·
COc1ccc(C(=O)NCCC2=CCCCC2)cc1OC
  · | 0.773 | -0.5 | · | 1.7% | 4.7 | · | · | ·
COc1ccc(NC(=O)CSc2nc3[nH]c(=O)cc(O)c3s2)c(OC)c1
  -4.2 | 0.633 | -2.5 | i | · | 41.0 | 6.1 | 7.9 | -0.8
Cc1ccc(COC(=O)NCc2cccnc2)cc1
  -1.7 | 0.656 | 1.0 | i | · | -7.5 | -0.2 | 7.3 | 0.0
CC(C)CCn1c(N2CCC(C(N)=O)CC2)nc2c1c(=O)[nH]c(=O)n2C
  · | 0.712 | 1.4 | · | 21.1% | -3.6 | 13.8 | 16.4 | 5.0
CC(C)c1nc(-c2ccc([N+](=O)[O-])cc2)cs1
  · | 0.697 | -2.3 | · | 0.1% | · | · | · | ·
CN(c1ccc(F)cc1)S(=O)(=O)c1ccc(Cl)c(C(=O)NCC(c2ccco2)N2CCCCC2)c1 (centres undefined)
  9.6 | 0.703 | 0.1 | i | 10.3% | · | -2.1 | -23.7 | 9.6
Cc1cccc(NC(=O)CSc2nnc(C)c(=O)n2N)c1C
  3.2 | · | -0.7 | i | · | -8.3 | 10.2 | 9.4 | -4.2
COc1ccc(-c2c(C#Cc3ccsc3)c3cc(-c4cccc5[nH]ccc45)ccc3n2C)cc1
  0.4 | 0.671 | 7.7 | i | · | 0.9 | -1.0 | 8.3 | -0.6
CC(C)Oc1cccc(NC(=O)C2(C)CCCN(C)C2)c1 (centres undefined)
  -1.2 | · | 4.5 | i | · | · | 4.5 | 8.5 | -2.1
C=CCOC(=O)/C=C/C(=O)NC(N)=O
  2.7 | · | -3.9 | i | 13.5% | 98.4* | 1.0 | 7.9 | 1.9
Cc1ccc(NC(=O)c2ccccc2)cc1
  · | 0.696 | 4.0 | · | 5.5% | -18.3 | · | · | ·
O=C(CCNS(=O)(=O)c1ccccc1F)OCc1ccccc1Cl
  -0.8 | 0.712 | -4.8 | · | -3.5% | -6.2 | -4.8 | -34.4 | -1.2
COC(=O)c1ccc(C(c2c(N)n(Cc3ccccc3)c(=O)n(C)c2=O)N2CCOCC2)cc1 (centres undefined)
  · | 0.701 | 0.4 | · | 6.1% | -7.9 | · | · | ·
OCCOCCn1c(-c2ccccc2)nc(=S)c2c1CCCC2
  -2.6 | 0.713 | -1.5 | i | -2.6% | 47.3 | 6.8 | 11.2 | -2.2
CS(=O)(=O)NCCCc1ccccc1
  · | 0.719 | 1.9 | · | 17.5% | -3.4 | · | · | ·
C/C(=N\N=C(c1ccccc1)c1ccccc1)c1ccco1
  · | · | 4.7 | · | -9.4% | 1.4 | · | · | ·
Nc1nc(CSC(=S)N2CCOCC2)nc(Nc2ccccc2)n1
  · | 0.693 | -1.2 | · | -4.5% | -0.9 | · | · | ·
CC(=O)Nc1ccc(S(=O)(=O)NCCN2CCOCC2)cc1
  · | 0.729 | -2.0 | · | -0.1% | 2.3 | · | · | ·
CC(=O)c1cccc(N(CC(=O)N2CCCCC2)S(C)(=O)=O)c1
  · | 0.651 | -1.3 | · | -3.3% | · | · | · | ·
O=C1C=C(c2ccc(F)cc2OCc2ccccc2)C[C@@H](c2ccc(Cl)cc2)C1
  -25.2 | · | 0.0 | i | · | 2.6 | 2.0 | 6.0 | 0.8
CCc1ccc(OCC(=O)NNC(=O)c2ccc(NC(=O)C3CC3)cc2)cc1
  · | 0.665 | -6.6 | · | · | 0.6 | · | · | ·
CN(C(=O)Cn1nnc(-c2ccccc2)n1)C1CCS(=O)(=O)C1 (centres undefined)
  -1.1 | 0.683 | -1.9 | i | -7.4% | -8.8 | 7.0 | 2.7 | -2.2
O=C1Nc2cc(Cl)cnc2N2CCCC12 (centres undefined)
  3.5 | 0.666 | -6.6 | i | 6.6% | -9.6 | 8.6 | 5.5 | 6.1

13 compounds already listed, sorted by molar mass, lowest first.
Values run as follows: AF4-AF9 inh | Ecoli growth | HNF4A DNA FP | FGF22 binding | Vif TR-FRET | ALR H2O2 inh | rRNA inh HTS | rRNA inh HTS OD600 | rRNA inh HTS RFP
Cc1ccc(NC(=O)c2ccccc2)cc1
  · | 0.696 | 4.0 | · | 5.5% | -18.3 | · | · | ·
CS(=O)(=O)NCCCc1ccccc1
  · | 0.719 | 1.9 | · | 17.5% | -3.4 | · | · | ·
O=C1Nc2cc(Cl)cnc2N2CCCC12 (centres undefined)
  3.5 | 0.666 | -6.6 | i | 6.6% | -9.6 | 8.6 | 5.5 | 6.1
C/C(=N\N=C(c1ccccc1)c1ccccc1)c1ccco1
  · | · | 4.7 | · | -9.4% | 1.4 | · | · | ·
CC(C)Oc1cccc(NC(=O)C2(C)CCCN(C)C2)c1 (centres undefined)
  -1.2 | · | 4.5 | i | · | · | 4.5 | 8.5 | -2.1
OCCOCCn1c(-c2ccccc2)nc(=S)c2c1CCCC2
  -2.6 | 0.713 | -1.5 | i | -2.6% | 47.3 | 6.8 | 11.2 | -2.2
CC(=O)c1cccc(N(CC(=O)N2CCCCC2)S(C)(=O)=O)c1
  · | 0.651 | -1.3 | · | -3.3% | · | · | · | ·
Nc1nc(CSC(=S)N2CCOCC2)nc(Nc2ccccc2)n1
  · | 0.693 | -1.2 | · | -4.5% | -0.9 | · | · | ·
O=C(CCNS(=O)(=O)c1ccccc1F)OCc1ccccc1Cl
  -0.8 | 0.712 | -4.8 | · | -3.5% | -6.2 | -4.8 | -34.4 | -1.2
CCc1ccc(OCC(=O)NNC(=O)c2ccc(NC(=O)C3CC3)cc2)cc1
  · | 0.665 | -6.6 | · | · | 0.6 | · | · | ·
O=C1C=C(c2ccc(F)cc2OCc2ccccc2)C[C@@H](c2ccc(Cl)cc2)C1
  -25.2 | · | 0.0 | i | · | 2.6 | 2.0 | 6.0 | 0.8
COc1ccc(-c2c(C#Cc3ccsc3)c3cc(-c4cccc5[nH]ccc45)ccc3n2C)cc1
  0.4 | 0.671 | 7.7 | i | · | 0.9 | -1.0 | 8.3 | -0.6
COC(=O)c1ccc(C(c2c(N)n(Cc3ccccc3)c(=O)n(C)c2=O)N2CCOCC2)cc1 (centres undefined)
  · | 0.701 | 0.4 | · | 6.1% | -7.9 | · | · | ·
